ALR H2O2 inh – inhibitors of human sulfhydryl oxidase ALR; P55789; purified ALR, DTT oxidation, H2O2 HRP-luminol luminescence; inhibition, % (concentration not given with the values); 290,000 compounds, 3.8% hits; AID 485317;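 active = mean and each replicate at 75% or more; inconclusive = only one of the two met; inactive = neither met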;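 note: stock transfer was 7.5 nL into about 7.5 µL; 0% = neutral wells and 100% = wells with inactivated enzyme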
Target sequence (P55789 whole entry, looked up): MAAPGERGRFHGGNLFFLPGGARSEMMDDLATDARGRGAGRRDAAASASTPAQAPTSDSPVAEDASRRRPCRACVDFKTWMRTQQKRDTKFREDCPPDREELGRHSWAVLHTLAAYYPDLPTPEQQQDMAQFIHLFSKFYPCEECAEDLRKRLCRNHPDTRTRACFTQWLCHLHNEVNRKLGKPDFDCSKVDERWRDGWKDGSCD
rRNA inh HTS – selective bacterial rRNA inhibition in E. coli. E. coli WT GFP vs humanized-ribosome RFP mutants, fluorescence, 24 h; stronger effect = lower value; DMSO median 0, no signal -100. GFP signal change (wild-type ribosome), % (concentration not given with the values). 350,000 compounds, 1.6% hits;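 active = significant combined selectivity score with lowered wild-type GFP, culture density cut under 30%, mutant RFP and density less affected; inactive = any of these conditions unmet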; note: one replicate is shown; some compounds called inactive have numbers as strong as hits
Vif A3G – HIV-1 Vif–A3G interaction blockers – biochemical, TR-FRET, GST-Vif 1-94, biotin-A3G peptide, dose response retest, primary screen (AID 1117319); TR-FRET GST-Vif / biotin-A3G peptide binding; higher % means a stronger effect; test concentration not given here; strong numbers were not always called active; inhibition, %, or IC50 in µM where a hit was titrated; 260,000 compounds, 0.57% hits;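 active = above the screen mean plus three standard deviations and confirmed in dose response; inconclusive = results disagree or hit not tested in dose response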;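 note: Vif residues 1-94 fused to GST binding biotinylated APOBEC3G peptide 110-148; 0% = full assay without inhibitor and 100% = GST in place of GST-Vif; retest series ran down from 100 µM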
E coli growth – inhibitors of Escherichia coli growth; OD600 absorbance (no concentration beside the values); 330,000 compounds, 0.21% hits; OD600, 23 h; stronger effect = lower value;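 active = OD600 absorbance below the run mean of sample wells minus 3.6 SD, in any replicate, cut at about 0.56 in these data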;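 note: stock transfer was 300 nL into about 60 µL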
MLL AF4-AF9 inh – inhibitors of human MLL-AF4/AF9 interaction; P42568; AlphaScreen, biotin-AF4 peptide binding to FLAG-AF9; inhibition, % at 10 µM; 350,000 compounds, 0.47% hits; AID 651704;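 active = every replicate reaching a set inhibition limit, whatever the replicate mean, cut at about 25% in these data; inconclusive = mean inhibition reaches that limit but some replicates miss it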;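 note: 0% = plate neutral control median and 100% = total signal loss; the record names both 10 and 1 µM as test concentration; the first replicate is given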
Target sequence (P42568 whole entry, looked up): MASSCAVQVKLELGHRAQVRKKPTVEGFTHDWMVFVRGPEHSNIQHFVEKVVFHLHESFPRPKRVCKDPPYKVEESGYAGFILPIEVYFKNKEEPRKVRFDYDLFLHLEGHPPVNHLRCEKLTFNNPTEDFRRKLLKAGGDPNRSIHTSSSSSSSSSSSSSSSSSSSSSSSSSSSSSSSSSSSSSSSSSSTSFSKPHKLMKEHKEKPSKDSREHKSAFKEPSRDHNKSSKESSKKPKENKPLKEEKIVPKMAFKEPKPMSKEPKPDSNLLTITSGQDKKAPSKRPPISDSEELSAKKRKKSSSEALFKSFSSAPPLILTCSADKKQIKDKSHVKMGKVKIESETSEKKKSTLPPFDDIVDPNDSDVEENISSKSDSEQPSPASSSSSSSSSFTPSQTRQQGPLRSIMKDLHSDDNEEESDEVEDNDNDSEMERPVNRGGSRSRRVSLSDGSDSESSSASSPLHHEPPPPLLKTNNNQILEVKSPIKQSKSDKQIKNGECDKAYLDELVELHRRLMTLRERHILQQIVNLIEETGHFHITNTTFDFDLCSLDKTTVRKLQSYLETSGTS
HNF4A DNA FP – change in binding of human HNF4 alpha to DNA. P41235. HNF4a-FITC DNA binding, fluorescence polarization, 1 h. activity change, % at 10 µM. 360,000 compounds, 0.3% hits. AID 1224865; in the data active = activity change above about 30%, passing the limit was not always enough;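 note: controls were the assay level and a saturating level of protein; the project sought stronger binding though the title names inhibitors; some compounds called inactive have numbers as strong as hits; positive values seem to mean higher polarization but the record does not say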
FGF22 binding – FGF22 (human) thermal shift binding. Q9HCT0. recombinant FGF22 thermal shift, SYPRO orange fluorescence; percent of sucrose octasulfate shift, DMSO zero. calls only at 9.99 µM. 340,000 compounds, 1.5% hits;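 active = melting point raised past a set limit in the mean and every replicate; inconclusive = no clear call; three in four hits are not shown here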
Target sequence (Q9HCT0 whole entry, looked up): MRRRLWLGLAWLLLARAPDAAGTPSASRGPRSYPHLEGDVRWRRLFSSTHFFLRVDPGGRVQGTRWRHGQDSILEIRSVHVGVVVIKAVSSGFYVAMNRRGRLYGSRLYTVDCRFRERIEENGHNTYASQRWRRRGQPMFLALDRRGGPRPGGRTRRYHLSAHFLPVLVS
rRNA inh HTS OD600 – further read-out of rRNA inh HTS, marked with its call; OD600 change, %; measured here: OD600 growth;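 optical density of the mix in the first replicate; 0 = DMSO median and -100 = no signal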
rRNA inh HTS RFP – also measured in rRNA inh HTS; calls as there; RFP signal change, %; measured here: RFP humanized mutant strains;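 first replicate; 0 = DMSO median and -100 = no signal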
* marks the source's active call; other numbers are inactive results; i = inactive; u = inconclusive; x = not tested or not shown; & = joins results of further samples; ! = repeats disagree. An excerpt (hit frequency here may not be typical).

SMILES	ALR H2O2 inh	rRNA inh HTS	rRNA inh HTS OD600	rRNA inh HTS RFP	Vif A3G	E coli growth	MLL AF4-AF9 inh	HNF4A DNA FP	FGF22 binding
COc1cccc(S(=O)(=O)N2C[C@H](O)COC[C@H]3O[C@@H](CC(=O)N4CCN(C)CC4)CC[C@@H]32)c1	x	1&6	-1&6	-1.4&0.8	x	x	-1.3&3.8	2.9	i
C[C@H]1CN([C@@H](C)CO)C(=O)c2cc(NS(=O)(=O)c3ccc(F)cc3)ccc2O[C@H]1CN(C)S(=O)(=O)c1cccs1	x	0	5	5.1	x	x	-3.0	x	i
CO[C@@H]1CN(C)C(=O)c2ccc(NC(=O)C3CCOCC3)cc2OC[C@@H](C)N(S(=O)(=O)c2ccc(C)cc2)C[C@H]1C	x	-3	-3	0.8	x	x	-0.7	x	i
CN(C)Cc1c(C#N)c2ccccc2n1C	-3	x	x	x	-1%	0.65	x	-3.4	x
O=C(NC(c1ccc(Cl)cc1)c1cnccn1)C1CCN(CCOc2ccc(F)cc2)CC1 (centres undefined)	x	x	x	x	x	x	-4.5	4.2	i
CCC(C)NC(=O)Cn1cc2c(n1)CCC(C)C2 (centres undefined)	x	11	9	-1.7	2%	0.75	-1.6	0.5	i
CCCn1c(=O)c(C(=O)NNC(=O)c2cccc([N+](=O)[O-])c2)c(O)c2ccccc21	7	10	11	-0.5	x	0.74	0.5	2.5	x
O=C(C[C@H]1C[C@@H]2c3cc(NC(=O)CC4CC4)ccc3O[C@@H]2[C@@H](CO)O1)NCc1cccc(F)c1	x	0	9	-0.1	x	x	-1.7	x	i
Cc1ccc(C)c(C(O)c2ncc(-c3cccc(F)c3)[nH]2)c1 (centres undefined)	x	-14	-17	0.6	x	x	1.6	3.4	i
CC(C(=O)O)c1ccc(CC2CCCC2=O)cc1 (centres undefined)	-4	x	x	x	x	0.68	-3.5	-2.0	i
COc1ccc(Nc2cc(=O)oc3ccccc23)cc1	-13	x	x	x	u	0.68	x	-0.2	x
C=CCNc1nc2c(c(=O)n(C)c(=O)n2C)n1CC	13	6	4	-0.5	-2%	0.72	0.5	-1.2	i
O=C(COc1ccccc1C(=O)O)Nc1cccc2ccccc12	-23	2	0	1.2	x	0.7	-11	3.2	i
COc1ccc(NC(=O)Nc2cccc3c2O[C@H](CN(C)C(=O)Nc2c(C)noc2C)[C@@H](C)CN([C@H](C)CO)C3=O)cc1	-5	0&6	-5&11	-1.9&-0.4	x	x	-1.5	-0.1	i
CCCCN(C=O)c1c(CC)nc2c(OCCC3CCCCC3)cccn12	x	-46	-75	-5.3	x	x	1.6	-1.3	i
Cc1cccc(C)c1N1CCN(c2ccc3nnc(C(F)(F)F)n3n2)CC1	-28	x	x	x	9%	0.78	x	0.5	x
O=C(Nc1ccccc1)c1nn(-c2ccccc2)c(=O)cc1C(F)(F)F	-2	x	x	x	6%	0.79	x	37	x
C[C@@H]1CN([C@H](C)CO)C(=O)c2cc(-c3ccc(C#N)cc3)cnc2O[C@H]1CN(C)C(=O)CC1CC1	x	-1	-4	-0.3	x	x	-0.7	x	i
COc1ccc(CC(=O)Nc2cccc(C(=O)NN3C(=O)c4ccccc4C3=O)c2C)cc1	-3	x	x	x	x	0.71	x	-0.5	x
O=C(NCC1CC1)[C@@H]1[C@@H](CO)[C@@H]2Cn3c(ccc(C4=CCCC4)c3=O)[C@H]1N2C(=O)C1CC1	x	1	2	0.2	x	x	-0.1	x	i
COC(=O)COc1ccc(C(=O)OC)cc1	x	x	x	x	-1%	0.71	x	2.0	x
CC(C)c1ccc(OCC(=O)NNC(=O)c2cnccn2)cc1	-20	-28*	-21*	-5.3*	-11%	0.63	2.1	-1.2	i
COc1ccc(NC(=O)N2C3CCCC2CC(NC(=O)C2CC2)C3)cc1 (centres undefined)	-2	1	2	-2.0	x	0.69	0.3	-5.0	i
Cc1cc(C(=O)Nc2cc(S(C)(=O)=O)ccc2Cl)no1	2	0	-1	-0.8	-6%	0.68	-1.8	-6.4	i
S=C1Cc2ccccc2N1	x	-11	10	-1.4	x	0.63	3.0	1.4	i

2 entries picked at random from those above:
SMILES	ALR H2O2 inh	rRNA inh HTS	rRNA inh HTS OD600	rRNA inh HTS RFP	Vif A3G	E coli growth	MLL AF4-AF9 inh	HNF4A DNA FP	FGF22 binding
COc1ccc(NC(=O)N2C3CCCC2CC(NC(=O)C2CC2)C3)cc1 (centres undefined)	-2	1	2	-2.0	x	0.69	0.3	-5.0	i
COc1ccc(CC(=O)Nc2cccc(C(=O)NN3C(=O)c4ccccc4C3=O)c2C)cc1	-3	x	x	x	x	0.71	x	-0.5	x

Later entries
SMILES	ALR H2O2 inh	rRNA inh HTS	rRNA inh HTS OD600	rRNA inh HTS RFP	Vif A3G	E coli growth	MLL AF4-AF9 inh	HNF4A DNA FP	FGF22 binding
CCC(Sc1nnc(C)c(=O)[nH]1)C(=O)Nc1cccc2ccccc12 (centres undefined)	x	0	-4	25	x	0.69	-3.0	1.6	i
c1ccc(-c2cnc(SCCN3CCOCC3)n2CC2CCCO2)cc1 (centres undefined)	-2	x	x	x	10%	0.7	x	3.4	x
CCOc1ccc2c(c1)C(C)=CC(C)(C)N2C(=O)Nc1ccccc1	14	x	x	x	u	0.75	x	3.1	x
COC(=O)c1ccc(-n2c(C)cc(C(=O)CCl)c2C)cc1	12	-11	-15	1.1	11%	0.65	6.1	4.9	i
CC(C)(C)C(=O)Nc1ccccc1N1CCN(C(=O)c2ccc(Cl)cc2)CC1	x	x	x	x	5%	0.7	x	2.9	x
COc1ccc(C2=[N+]([O-])C(C)(C)N(O)C2(C)C)cc1	12	x	x	x	-1%	0.68	x	-1.5	x
Cc1ccccc1N1CCN(S(=O)(=O)C[C@]23CCC(CC2NC(=O)[C@@H](N)CCS(C)(=O)=O)C3(C)C)CC1 (some centres undefined)	x	-1	-25	23	x	x	0.8	0.9	i
O=C1NC(c2ccc(Cl)cc2Cl)Oc2ccccc21 (centres undefined)	-7	4	9	-7.8	x	0.71	-1.1	-0.4	i
Cc1ccc(NC(=O)CN2C(=O)NC(C)(c3ccc4c(c3)OCO4)C2=O)cc1 (centres undefined)	3	2	-5	6.0	-2%	0.69	-5.2	2.6	i
O=C(NNC(=O)c1ccc(Cl)cc1Cl)c1cnccn1	x	-35*	-12*	-7.3*	-2%	0.66	0.3	2.8	i
O=C(NCCN1CCOCC1)c1cc2sccc2n1Cc1ccc(F)cc1	97*	x	x	x	16%	0.61	x	-0.9	x
CO[C@@H](CN(C)S(=O)(=O)c1cccc(Cl)c1)[C@H](C)CN([C@@H](C)CO)S(=O)(=O)c1ccc(Cl)cc1	x	-1	-15	5.4	x	x	-0.8	x	i
Cc1ccc(S(=O)(=O)N[C@@H]2CC[C@@H](CC(=O)O)O[C@@H]2CO)cc1	x	-1	2	0.5	x	x	-1.4	x	i
C[C@H](CO)N1C[C@H](C)[C@@H](CN(C)Cc2ccc(-c3ccccc3)cc2)Oc2ccc(NC(=O)Nc3ccc4c(c3)OCO4)cc2C1=O	x	-2	-8	1.3	x	x	7.7	x	i
C[C@@H](NC(=O)C[C@H]1CC[C@@H](NC(=O)c2cccnc2)[C@H](CO)O1)c1ccccc1	x	-1	2	-0.3	x	x	-1.4	x	i
CCOC(=O)C(=O)Nc1ccccc1C(=O)NC(C)C	-1	x	x	x	0%	0.67	x	0.8	x
CCOCCCNC(=S)N(CCCN(C)C)Cc1cc2cc3c(cc2[nH]c1=O)OCCO3	-54	18	11	2.3	-10%	0.64	0.9	0.0	i
O=C(Cn1cc(C(=O)c2ccco2)c2ccccc21)NC1CC1	-3	7	-9	1.8	x	0.69	-5.4	-1.8	i
COc1ccccc1NC(=O)CCc1nnc2ccc(N3CCC4(CC3)OCCO4)nn12	-2	2	3	-0.2	2%	0.62	-0.1	1.3	i
O=C(OCC(=O)N1CCCCCC1)c1ccc[nH]c1=O	-10	12	11	-1.1	x	0.68	-0.7	-0.6	i
CS(=O)(=O)n1nc(-c2ccccc2)nc1N	-4	x	x	x	1%	0.64	x	0.3	x
COc1ccc(C(CC(=O)Nc2ccccn2)N2Cc3ccccc3C2=O)cc1OC (centres undefined)	-2	5	1	4.6	-2%	0.68	-1.4	2.7	i
COC1=CC(C)C2CC3OC(=O)CC4C(C)=C(OC)C(=O)C(C2(C)C1=O)C34C (centres undefined)	x	15	7	6.4	x	x	-3.0	4.0	i
COc1ccccc1C#Cc1cnc2c(c1)C(=O)N([C@H](C)CO)C[C@@H](C)[C@@H](CN(C)C(=O)CN(C)C)O2	x	3	11	-1.0	x	x	6.1	x	i
CN(C)CC#Cc1ccc([C@H]2[C@H](CO)N3CCCCN(CC4CC4)C[C@@H]23)cc1	x	6	11	-3.3	x	x	22	x	i

As a working copy, some entries already given:
SMILES	ALR H2O2 inh	rRNA inh HTS	rRNA inh HTS OD600	rRNA inh HTS RFP	Vif A3G	E coli growth	MLL AF4-AF9 inh	HNF4A DNA FP	FGF22 binding
COc1ccc(C(CC(=O)Nc2ccccn2)N2Cc3ccccc3C2=O)cc1OC (centres undefined)	-2	5	1	4.6	-2%	0.68	-1.4	2.7	i
COC1=CC(C)C2CC3OC(=O)CC4C(C)=C(OC)C(=O)C(C2(C)C1=O)C34C (centres undefined)	x	15	7	6.4	x	x	-3.0	4.0	i
COc1ccccc1C#Cc1cnc2c(c1)C(=O)N([C@H](C)CO)C[C@@H](C)[C@@H](CN(C)C(=O)CN(C)C)O2	x	3	11	-1.0	x	x	6.1	x	i
CN(C)CC#Cc1ccc([C@H]2[C@H](CO)N3CCCCN(CC4CC4)C[C@@H]23)cc1	x	6	11	-3.3	x	x	22	x	i

The listing continues:
SMILES	ALR H2O2 inh	rRNA inh HTS	rRNA inh HTS OD600	rRNA inh HTS RFP	Vif A3G	E coli growth	MLL AF4-AF9 inh	HNF4A DNA FP	FGF22 binding
C[C@@H]1CN([C@@H](C)CO)S(=O)(=O)c2ccc(C#CC3(O)CCCC3)cc2O[C@@H]1CN(C)C(=O)c1cccnc1	x	4	6	-1.5	x	x	-2.7	x	i
COc1cc(SC)ccc1C(=O)NCCOc1ccc(Cl)cc1	-44	-47	-74	-18	-3%	0.72	-4.0	2.9	i
C[C@H](CO)N1C[C@H](C)[C@H](CN(C)C(=O)Nc2ccc(C(F)(F)F)cc2)OCc2cnnn2CCCC1=O	x	-11*!	4.8*!	14*!	x	x	0.2&0.4	-0.2	i
Cc1ccccc1C(=O)NC(=S)Nc1sc2c(c1C#N)CCCC2	-4	x	x	x	0%	0.79	x	0.6	x
Cc1ccc(S(=O)(=O)N(C)C[C@@H]2Oc3ccc(NC(=O)Cn4cnnn4)cc3CC(=O)N([C@H](C)CO)C[C@H]2C)cc1	x	-1	0	-4.1	x	x	1.2	x	i
CC(C)C[C@H](N)C(=O)N1CCC(C(=O)N[C@H](C(=O)NC(C)c2ccccc2)C(C)C)CC1 (some centres undefined)	-17	x	x	x	x	0.78	-0.9	2.7	i
CCC(=O)OCCNc1cc(Sc2nc3ccccc3[nH]2)c2nonc2c1[N+](=O)[O-]	x	x	x	x	9.5µM*	0.66	x	0.6	x
Cc1ccc(N(CC(=O)NCc2ccccc2Cl)S(=O)(=O)c2c(C)noc2C)cc1	-3	7	6	-0.4	x	0.65	-11	5.2	x
CC(C)c1cccc(C(C)C)c1NC(=O)CNCc1ccccc1F	-11	-21	-30	-5.3	-4%	0.69	-0.8	-0.9	i
O=C(c1cccc(Br)c1)N1CCN(c2ccc(N3CCOCC3)nn2)CC1	0	-1	-7	-1.5	3%	0.66	u	-0.2	i
COc1cc(C2c3cc4c(cc3OC(C)(N3CCCC3)C2C)OCO4)cc(OC)c1OC (centres undefined)	x	3	3	0.3	-1%	x	14	5.7	i
O=C(CN1CCCCCC1)Nc1nc2ccccc2s1	x	9	7	-1.0	x	0.7	-2.1	-4.4	i
